Source: PubChem BioAssay
TRPML1 inh – qHTS for Inhibitors of the Human Mucolipin Transient Receptor Potential 1 (TRPML1); hit rate 0.02% among 390,000; activity change, negative = inhibition, % (concentration not given with the values); Mucolipin-1 (Homo sapiens), Q9GZU1; TRPML1-inducible cells, Ca2+ dye fluorescence, FDSS; stronger effect = lower value; inhibition of EC80 agonist-evoked calcium signal; in the data active means activity change below about -50%; inconclusive means about -30% to -50%; inactive means above about -30%;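 also: stimulus is agonist 54-4 at its EC80 concentration; % is scaled to controls: 0 for no effect and ±100 for the full control effect; compound concentration not given in the record; the text of the record puts the active cut at -80%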
Target sequence (Q9GZU1 whole entry, looked up): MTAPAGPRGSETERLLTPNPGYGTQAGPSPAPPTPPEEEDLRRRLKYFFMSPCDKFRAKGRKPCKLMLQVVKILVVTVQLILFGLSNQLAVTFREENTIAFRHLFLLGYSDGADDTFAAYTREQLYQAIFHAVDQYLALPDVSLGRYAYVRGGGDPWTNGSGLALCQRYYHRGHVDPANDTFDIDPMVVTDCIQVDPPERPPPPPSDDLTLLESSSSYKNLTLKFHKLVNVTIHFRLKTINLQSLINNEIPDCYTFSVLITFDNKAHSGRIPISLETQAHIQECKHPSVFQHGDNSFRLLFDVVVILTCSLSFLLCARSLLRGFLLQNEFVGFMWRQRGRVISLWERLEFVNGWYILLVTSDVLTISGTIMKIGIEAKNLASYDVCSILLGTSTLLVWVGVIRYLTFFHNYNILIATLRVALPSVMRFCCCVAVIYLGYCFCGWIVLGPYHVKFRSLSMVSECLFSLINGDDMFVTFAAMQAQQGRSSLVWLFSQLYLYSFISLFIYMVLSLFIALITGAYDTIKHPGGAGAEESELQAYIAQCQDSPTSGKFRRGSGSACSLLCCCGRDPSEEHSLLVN
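Tet-induced TRPML1-DL cells loaded with Ca8 no-wash calcium dye were read kinetically on FDSS. Compound addition was followed by EC80 agonist 54-4 (4 uM final); inhibition was read over 110 s.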
D2 PAM – Beta-Arrestin HTS for Positive Allosteric Modulators of the Human D2 Dopamine Receptor: Potentiators; D(2) dopamine receptor (Homo sapiens), P14416; DiscoveRx D2 beta-arrestin cells, luminescence, 90 min; 100% = 57 uM dopamine signal; potentiation, % (concentration not given with the values); hit rate 0.23% among 360,000; AID 624464, 2012; active = potentiation of 50% or more; inconclusive = 30% to 50%; inactive = 30% or less;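 also: compound concentration not given in the record; tested on top of an EC20 dose of dopamine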
Target sequence (P14416 whole entry, looked up): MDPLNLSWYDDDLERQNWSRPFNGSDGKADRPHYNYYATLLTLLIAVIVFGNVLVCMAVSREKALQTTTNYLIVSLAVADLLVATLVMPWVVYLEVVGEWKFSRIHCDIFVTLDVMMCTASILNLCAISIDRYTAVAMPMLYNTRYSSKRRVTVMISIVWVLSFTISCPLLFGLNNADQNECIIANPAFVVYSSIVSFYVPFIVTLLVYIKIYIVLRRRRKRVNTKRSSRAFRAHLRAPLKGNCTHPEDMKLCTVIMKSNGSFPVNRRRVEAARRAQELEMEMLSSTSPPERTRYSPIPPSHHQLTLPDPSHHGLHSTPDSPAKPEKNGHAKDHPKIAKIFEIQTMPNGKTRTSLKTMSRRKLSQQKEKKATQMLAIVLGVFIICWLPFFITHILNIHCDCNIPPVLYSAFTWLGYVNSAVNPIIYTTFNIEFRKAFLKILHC
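PathHunter beta-arrestin assay in DiscoveRx D2 cells. Compounds were added with an EC20 of dopamine (50 nM final) for 90 min at 37 deg C. Luminescence was read 1 h after detection reagent, with 57 uM dopamine as the EC100 control.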
D2 ag – Beta-Arrestin HTS for Positive Allosteric Modulators of the Human D2 Dopamine Receptor: Agonists | D(2) dopamine receptor (Homo sapiens), P14416 | DiscoveRx PathHunter D2 beta-arrestin, luminescence, 90 min; 100% = 57 uM dopamine signal | activation, % (concentration not given with the values) | hit rate 0.084% among 360,000; in the data active = activation above about 40%; inconclusive = about 15% to 40%; inactive = below about 15%; also: compound concentration not given in the record; the text of the record calls up to 30% inactive
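DiscoveRx PathHunter D2 beta-arrestin cells (2,100/well) attached overnight, then compound-stimulated 90 min at 37 C in HBSS/10 mM HEPES/0.1% Tween-20 buffer; beta-galactosidase complementation read by luminescence after 1 h at ambient temperature. Dopamine 57 uM final (EC100) as control.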
Six1-Eya2 inh – qHTS Assay for Inhibitors of the Six1/Eya2 Interaction; Homeobox protein SIX1 (Homo sapiens) + Protein phosphatase EYA2 (Homo sapiens), …; AlphaScreen GST-Six1/His-Eya2 binding, biochemical; stronger effect = lower value; control for the full effect not named in the record; activity change, % (test concentration not listed); hit rate 0.56% among 360,000; AID 651725, 2012; in the data active = activity change below about -65%; inconclusive = about -30% to -65%; inactive = above about -30%; also: % is scaled to controls: 0 for no effect and ±100 for the full control effect; compound concentration not given in the record
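AlphaScreen luminescence read after one hour at 37 °C in darkness. Pin-transferred compounds met GST-Six1 and His-Eya2 protein (5X stock 250 nM/500 nM) plus glutathione donor and Ni-chelate acceptor beads (5X, 50 ug/mL).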
PINK1 modulator – A Quantitative High throughput Screen to Identify Chemical Modulators of PINK1 Expression | hit rate 0.2% among 410,000 | Potency, µM (top dose mostly 76.6 µM), without a hit: at the highest dose activation (PINK1 increase), actives largely listed as activators | PINK1 immunofluorescence, high-content cytometry, 24 h | AID 624263, 2012; active = well fitted activation curve with a large enough effect; inconclusive = small, poorly fitted or top-dose-only effect; inactive = flat fitted curve, though single readings scatter; cell line not stated here;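 also: potency is read from the fitted curve at half-maximal effect; % of control where 0% means no effect; nearly all actives have a fitted effect of over 65% in size; a mitochondrial uncoupler was the plate control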
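Decision-based qHTS: stable cells, 24 h exposure to five compound concentrations, CCCP as control. Fixed cells stained for PINK1 plus nuclear, mitochondrial and cell markers, cytometer read.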
TRPML1 agonist – qHTS for Agonists of the Human Mucolipin Transient Receptor Potential 1 (TRPML1); TRPML1-expressing cells, Ca2+ dye fluorescence, FDSS; host cell line not named in the record; reference of the full effect not given here; activation, % (no concentration beside the values); AID 624414, 2012; hit rate 0.12% among 410,000; Mucolipin-1 (Homo sapiens), Q9GZU1; in the data active = activation above about 50%; inconclusive = about 30% to 50%; inactive = below about 30%; also: 0% is about no effect; the text of the record puts the active cut at 80%
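TRPML1-DL cells, Tet-induced overnight (~16 h, 37 degrees C), loaded 45-90 min at room temperature with Ca8 no-wash calcium dye plus quencher. FDSS fluorescence: 10 s baseline, compound pin-transfer, 110 s agonist read, then EC80 54-4 (4uM final) and 110 s antagonist read.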
* hit, by the source's call; & = joins results of further samples; [ ] = dose if it differs, or a comment.

For Cc1ccc(C(=O)NNC(=O)CSc2nnc(-c3ccccc3)n2Cc2ccccc2)cc1 the results were TRPML1 inh -14, D2 PAM -10, D2 ag -1.9, Six1-Eya2 inh -2, PINK1 modulator 0.9% and TRPML1 agonist 1.6.
`O=C(CC(NC(=O)c1ccccc1Cl)c1ccccc1)NC1=NCCS1` (stereo unspecified) gave TRPML1 inh 9, D2 PAM -27, D2 ag -0.1, Six1-Eya2 inh 2, PINK1 modulator 4.7% and TRPML1 agonist -1.1.
Screening Cc1cccc(NC(=O)CSc2nc(N)c(NC(=O)c3ccccc3F)c(=O)[nH]2)c1 returned TRPML1 inh 40, D2 PAM -24, D2 ag -5.3, Six1-Eya2 inh -6, PINK1 modulator 0.6% and TRPML1 agonist -0.5.
For C/C(=C/c1ccccc1)C(=O)N1CCN(c2ccc(F)cc2)CC1 the results were TRPML1 inh 7, D2 PAM -8, D2 ag -0.6, Six1-Eya2 inh 4, PINK1 modulator 1.1% and TRPML1 agonist -0.9.
`OCCC1CN(C/C=C/c2ccco2)CCN1Cc1ccccc1` (stereo unspecified) gave TRPML1 inh 9, D2 PAM -25, D2 ag 0.1, Six1-Eya2 inh -3, PINK1 modulator -1.3% and TRPML1 agonist -1.1.
`Cc1cc(C)n2c(SCCN3C(=O)c4ccccc4C3=O)nnc2n1` gave TRPML1 inh 6, D2 PAM -1, D2 ag -3.8, Six1-Eya2 inh -1, PINK1 modulator 0.9% and TRPML1 agonist -0.2.
Screening O=S(=O)(Nc1nccs1)c1ccc(Nc2nnc(-c3ccccc3)c3ccccc23)cc1 returned TRPML1 inh -9, D2 PAM -21, D2 ag -4.1, Six1-Eya2 inh inconclusive, PINK1 modulator -2.0% and TRPML1 agonist 1.0.
Screening Nc1ccccc1C#Cc1ccc2[nH]ccc2c1 returned TRPML1 inh -9, D2 PAM -7, D2 ag -1.3, Six1-Eya2 inh -8, PINK1 modulator 6.7% and TRPML1 agonist -0.6.
`O=c1cc2nc(-c3ccccc3F)nc(SCc3ccc(Br)cc3)n2[nH]1` gave TRPML1 inh 23, PINK1 modulator 0.3% and TRPML1 agonist 0.2.
Screening CC(=O)OCc1c(C(F)(F)F)nn(C)c1SCc1ccc(Cl)cc1 returned TRPML1 inh 18, D2 PAM -5, D2 ag -0.3, Six1-Eya2 inh 17, PINK1 modulator -0.4% and TRPML1 agonist -0.4.
O=Cc1c(N2CCCCCC2)nc2ccccn2c1=O was read as TRPML1 inh 24, D2 PAM -3, D2 ag 4.1, Six1-Eya2 inh 0, PINK1 modulator -0.5%[38.3 µM] and TRPML1 agonist 0.3.
CCCC(=O)Nc1cc2nn(-c3ccc(OC)cc3)nc2cc1C was read as TRPML1 inh -5, PINK1 modulator 2.1% and TRPML1 agonist -0.3.
Screening CC1C(=O)N(Cc2cn(CC3CCCCC3)nn2)CCS(=O)(=O)N1Cc1ccc(-c2ccc(Cl)c(Cl)c2)cc1 (stereo unspecified) returned TRPML1 inh -16, D2 PAM -3, D2 ag -4.3, Six1-Eya2 inh -11, PINK1 modulator 2.0% and TRPML1 agonist 0.9.
`Cc1ccc(NC(=O)c2cc(S(=O)(=O)N3CCc4ccccc43)cn2C)c(Cl)c1` gave TRPML1 inh 4, PINK1 modulator 0.4% and TRPML1 agonist 3.4.
`O=C(NNc1ccccc1)C(=O)NNS(=O)(=O)c1ccc(CCCl)cc1` gave TRPML1 inh -2, D2 PAM -14, D2 ag -4.1, Six1-Eya2 inh -1, PINK1 modulator 0.9% and TRPML1 agonist -0.8.
Screening COC(=O)[C@H](C)NC(=O)COc1ccccc1 returned TRPML1 inh 3, D2 PAM -4, D2 ag -0.3, Six1-Eya2 inh 2, PINK1 modulator 1.8%[38.3 µM] and TRPML1 agonist -0.6.
COc1ccc(CN2C[C@H](Cc3ccccc3)[C@@H](CC(=O)Nc3ccccc3)C2=O)cc1 was read as TRPML1 inh 9, D2 PAM -14, D2 ag -2.3, Six1-Eya2 inh -2, PINK1 modulator 18% and TRPML1 agonist 0.1&0.7.
COc1ccc(NC(=O)CCCN2C(=O)C(c3ccccc3)Oc3cccnc32)c(OC)c1 (stereo unspecified) was read as TRPML1 inh -4&30, D2 PAM -28, D2 ag -4.5, Six1-Eya2 inh -12, PINK1 modulator 0.0%&1.1% and TRPML1 agonist 1.5&1.4.
O=C(C1=COCCO1)N1CCN(S(=O)(=O)c2cccc(Br)c2)CC1 was read as TRPML1 inh 3, D2 PAM -1, D2 ag -0.5, Six1-Eya2 inh 3, PINK1 modulator -0.6% and TRPML1 agonist -0.4.
Cn1nc(C(=O)OCC(=O)Nc2ccc(Cl)cc2Cl)c2ccccc2c1=O was read as TRPML1 inh -6, D2 PAM -6, D2 ag 1.0, Six1-Eya2 inh 10, PINK1 modulator 2.1% and TRPML1 agonist -0.5.
O=C(NCc1cccs1)C1CC(=O)N(Cc2ccccc2)C1 (stereo unspecified) was read as TRPML1 inh 26, D2 PAM -1, D2 ag -1.8, Six1-Eya2 inh 8, PINK1 modulator -0.2% and TRPML1 agonist -0.6.
For Cc1oc2ncn(CC(C)C)c(=O)c2c1C(=O)NCCCN(Cc1ccccc1)C(C)C the results were TRPML1 inh -13, PINK1 modulator -1.3% and TRPML1 agonist -0.2.
Screening COc1ccc(OC)c(NC(=O)CSc2nc(N3CCOCC3)nc(N3CCOCC3)n2)c1 returned TRPML1 inh 5, D2 PAM 1, D2 ag 0.1, Six1-Eya2 inh 4, PINK1 modulator 4.0% and TRPML1 agonist 0.0.
O=C(c1ccc2c(c1)OCO2)C1CCCN(Cc2ccccc2OC(F)F)C1 (stereo unspecified) was read as TRPML1 inh 4, D2 PAM -33, D2 ag -2.3, Six1-Eya2 inh -2, PINK1 modulator 3.5% and TRPML1 agonist 1.6.
`COc1ccc(CC(=O)NNC(=O)CCC(=O)Nc2cc(C)ccc2C)cc1` gave TRPML1 inh -2, D2 PAM -4, D2 ag -2.9, Six1-Eya2 inh 7, PINK1 modulator -2.2% and TRPML1 agonist -0.1.
CCC(C)(C)NC(=O)C(c1ccc(OC)cc1)N(Cc1ccccc1)C(=O)CCC(=O)Nc1cc(C)on1 (stereo unspecified) was read as TRPML1 inh 19, D2 PAM -11, D2 ag -3.2, Six1-Eya2 inh -4, PINK1 modulator -0.9% and TRPML1 agonist 2.7.
For CCC(=O)Nc1ccc(C(=O)N/N=C/c2cc(Br)c(OC)cc2OC)cc1 the results were TRPML1 inh 12, D2 PAM -10, D2 ag -3.6, Six1-Eya2 inh -2, PINK1 modulator 7.7% and TRPML1 agonist 1.5.
Screening COc1ccc(-c2noc(COc3ccc4c(c3)OCO4)n2)cc1 returned TRPML1 inh 3, D2 PAM -4, D2 ag -1.2, Six1-Eya2 inh -1 and TRPML1 agonist 2.1.
Screening Cc1ccc(C)c(S(=O)(=O)NCC(c2ccco2)S(=O)(=O)c2ccc(F)cc2)c1 (stereo unspecified) returned TRPML1 inh -8, PINK1 modulator 0.1% and TRPML1 agonist 0.1.
For CCN(CC)CCNC(=O)c1c(O)c2cccc3c2n(c1=O)CCC3 the results were TRPML1 inh -18, D2 PAM -32, D2 ag -4.5, Six1-Eya2 inh 4, PINK1 modulator -1.3% and TRPML1 agonist 0.3.
For Cc1nn(CC(=O)NCCc2ccc(Cl)cc2)c(=O)c2cc3cc(F)ccc3n12 the results were TRPML1 inh 13, PINK1 modulator 0.3% and TRPML1 agonist -0.2.
`CC(C)(C)NC(=O)Cn1c(=O)n(CC(=O)NC(C)(C)C)c2ccccc21` gave TRPML1 inh -11, D2 PAM -5, D2 ag 8.1, Six1-Eya2 inh 7, PINK1 modulator 2.1% and TRPML1 agonist 0.9.
For CN(C(=O)CSc1nc(C2CC2)nc2ccccc12)c1nc(-c2ccccc2)cs1 the results were TRPML1 inh 7, D2 PAM 0, D2 ag 1.4, Six1-Eya2 inh 1, PINK1 modulator inconclusive and TRPML1 agonist 0.2.
Screening O=C(Cn1nnc(-c2ccccc2)n1)N/N=C/c1cccc([N+](=O)[O-])c1O returned TRPML1 inh 4, D2 PAM -4, D2 ag -1.7, Six1-Eya2 inh inconclusive, PINK1 modulator 3.0% and TRPML1 agonist 0.9.
`Cc1nn(C)c2c1c(-c1ccccc1)cc(=O)n2Cc1c(F)cccc1Cl` gave TRPML1 inh 22, PINK1 modulator 0.8% and TRPML1 agonist 2.7.
For Cc1ccc2c(CC(=O)N3CCOCC3)coc2c1 the results were TRPML1 inh 18, D2 PAM -8, D2 ag 4.5, Six1-Eya2 inh 9, PINK1 modulator 1.6% and TRPML1 agonist 0.5.
Screening COC(=O)c1ccc(-c2nc3cc(Cl)c(N)cc3s2)cc1 returned TRPML1 inh -4, D2 PAM 16, D2 ag -1.1, Six1-Eya2 inh 32, PINK1 modulator 8.3% and TRPML1 agonist -0.4.
For COc1cc(/C=N/NC(=O)c2cc(-c3ccccc3)nc3ccccc23)cc(OC)c1O the results were TRPML1 inh -5, D2 PAM 21, D2 ag 1.7, Six1-Eya2 inh -2, PINK1 modulator 1.2% and TRPML1 agonist -1.1.
Cn1c(C2CCCCC2)nc2ccccc21 was read as TRPML1 inh -4, D2 PAM -8, D2 ag 2.3, Six1-Eya2 inh 23, PINK1 modulator 0.2% and TRPML1 agonist 1.0.
For CCc1cc(-c2n[nH]c(C)c2Oc2ccc(C(C)C)cc2)c(O)cc1O the results were TRPML1 inh 3, D2 PAM 0, D2 ag 1.1, Six1-Eya2 inh -9, PINK1 modulator 12% and TRPML1 agonist 0.5.
Screening CC(C)(C)C1CCc2sc(C(=O)NNC(=O)CCl)cc2C1 (stereo unspecified) returned TRPML1 inh 20, D2 PAM -3, D2 ag -5.0, Six1-Eya2 inh 4, PINK1 modulator 1.9% and TRPML1 agonist 1.3.

Sorted by length of the SMILES (falling): some entries from above.
Screening COc1ccc(OC)c(NC(=O)CSc2nc(N3CCOCC3)nc(N3CCOCC3)n2)c1 returned TRPML1 inh 5, D2 PAM 1, D2 ag 0.1, Six1-Eya2 inh 4, PINK1 modulator 4.0% and TRPML1 agonist 0.0.
`CC(C)(C)NC(=O)Cn1c(=O)n(CC(=O)NC(C)(C)C)c2ccccc21` gave TRPML1 inh -11, D2 PAM -5, D2 ag 8.1, Six1-Eya2 inh 7, PINK1 modulator 2.1% and TRPML1 agonist 0.9.
Screening COc1ccc(-c2noc(COc3ccc4c(c3)OCO4)n2)cc1 returned TRPML1 inh 3, D2 PAM -4, D2 ag -1.2, Six1-Eya2 inh -1 and TRPML1 agonist 2.1.

Compounds as they come (roughly 1% active in at least one column).
